# PABP FP inh: PABP-poly(A) binding inhibition; hit rate 1% among 290,000; P11940; PABP-poly(A) RNA binding, fluorescence polarization; AID 2014; inhibition, % at 35 µM;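 active = 50% or more with normal probe brightness, or confirmed in later tests; about a fifth of its hits are not listed in these tables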;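 note: calls also rest on retests at 20 µM and on dose response follow-up; controls were probe without protein and protein plus probe with vehicle; some compounds called inactive have numbers as strong as hits; many hits fall short of the cut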
# Target sequence (P11940 whole entry, looked up): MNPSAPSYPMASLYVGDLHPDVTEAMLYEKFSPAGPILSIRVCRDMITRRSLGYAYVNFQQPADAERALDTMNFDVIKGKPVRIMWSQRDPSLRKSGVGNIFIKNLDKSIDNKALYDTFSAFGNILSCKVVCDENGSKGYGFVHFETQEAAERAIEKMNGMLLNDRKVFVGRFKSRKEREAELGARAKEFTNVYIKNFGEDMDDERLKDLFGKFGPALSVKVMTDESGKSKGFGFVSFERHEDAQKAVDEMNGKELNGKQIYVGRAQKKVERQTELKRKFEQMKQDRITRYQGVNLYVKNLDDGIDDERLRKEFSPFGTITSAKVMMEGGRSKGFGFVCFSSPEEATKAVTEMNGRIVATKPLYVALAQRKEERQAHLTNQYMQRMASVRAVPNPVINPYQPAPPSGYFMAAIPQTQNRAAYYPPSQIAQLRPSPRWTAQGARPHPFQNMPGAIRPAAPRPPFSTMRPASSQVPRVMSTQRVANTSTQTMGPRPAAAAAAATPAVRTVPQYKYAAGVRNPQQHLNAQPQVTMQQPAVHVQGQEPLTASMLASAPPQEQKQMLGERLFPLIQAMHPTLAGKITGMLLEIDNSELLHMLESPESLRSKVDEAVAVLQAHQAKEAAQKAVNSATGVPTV
# eIF4H inh: inhibitors of RNA binding by human eIF4H | inhibition, % at 35 µM | hit rate 0.94% among 290,000 | Q15056 | eIF4H fluorescence polarization binding assay;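 active = 50% or more with normal probe brightness, or confirmed in later tests; about a fifth of its hits are not listed in these tables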;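 note: calls also rest on retests at 20 µM and on dose response follow-up; 0% = protein and probe with vehicle and 100% = probe without protein; strong numbers were not always called active; many hits fall short of the cut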
# Rce1 inhib: yeast Ras-converting enzyme inhibition. AID 2563. calls only. yeast membranes, quenched prenylated peptide cleavage fluorescence. hit rate 0.27% among 290,000;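 active = fall in fluorescence gain of 50% or more versus controls, with final raw signal at or below 3038400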;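 note: plate controls were neutral control wells for no effect and wells lacking membranes for full effect; tested at 10 µM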
# Env fusion inh: HIV envelope-mediated fusion inhibition; AID 651610; inhibition, % at 12.3 µM; HeLa-JRFL Env/CEM21 cell fusion, luciferase; hit rate 1.1% among 360,000;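 active = mean replicate inhibition score of at least 50 and every replicate individually at or above 50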;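 note: 0% = plate neutral controls and 100% = maraviroc near 300 nM; one replicate is shown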
# CSC inhib: blocks cancer stem cells; cancer stem cell-like cells viability, luminescence; inhibition, % at 7.5 µM; hit rate 1.1% among 300,000; AID 2717;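 active = mean at 75% or more and at least half the replicates too; tested in HMLE shEcad cells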;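 note: 0% = median of negative and 100% = median of positive control wells; the first replicate is given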
# Yeast UUG start: yeast start codon fidelity modulation. S. cerevisiae UUG-firefly luciferase reporter, luminescence/redox ratio. activity score, % at 18.7 µM. hit rate 0.13% among 350,000;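 active = replicate mean at a twofold rise or more, about +100% in these data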;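 note: firefly luciferase made from a UUG start codon reports start codon fidelity; reporter light over untreated wells divided by growth signal over untreated wells; some hits fall short of that in this replicate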
# MT1-MMP act inh: inhibitors of human MT1-MMP activation; P50281; HT1080 RFP-PRO-GFP cells, GFP/RFP ratio fluorescence, overnight; percent of plate control window, DMSO zero; GFP/RFP ratio change, % at 20 µM; hit rate 0.061% among 360,000; AID 651647;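 active = GFP/RFP ratio change of at least 30% with cell ATP level not reduced by more than half and red fluorescence within 50% of control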; note: strong numbers were not always called active
#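 Material – HT1080 RFP-PRO-GFP cells · Control set – DMSO wells and RFP-L50D-GFP cells · Incubation – overnight cell settling, then overnight compound exposure, 37 °C, 5% CO2 · Compound dosing – single-point 20 µM compound, 1% DMSO · Read-out – GFP/RFP fluorescence ratio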
# MT1-MMP act inh RFP: further read-out of MT1-MMP act inh, marked with its call; RFP signal change, %; measured here: RFP expression control read;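 0 = vehicle wells; hits needed this value within 50% of zero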
# The depositor's hits bear a star; i = inactive; nt = not tested or not shown.
No.	Molecule	PABP FP inh	eIF4H inh	Rce1 inhib	Env fusion inh
1	O=c1oc2ccccc2c(N2CCCCC2)c1[N+](=O)[O-]	9.0	2.6	i	nt
2	CCOC(=O)C1(CC2CCCCO2)CCN(Cc2ccc(OC)cc2F)CC1 (stereo unspecified)	-7.2	2.3	nt	8.9
3	CC1O[C@@H](OC2C(O)C(O)C(CO)O[C@H]2OC2C[C@]3(C)C(CC(O)C4[C@@H]([C@]5(C)CC[C@@H](C(C)(C)O)O5)CC[C@]43C)[C@@]3(C)CCC(O)C(C)(C)C23)C(O)C(O)C1O (stereo partly specified)	nt	nt	nt	2.9
4	Cc1[nH]n(-c2ccccc2)c(=O)c1C(c1ccc(O)c([N+](=O)[O-])c1)c1c(C)[nH]n(-c2ccccc2)c1=O	nt	nt	i	-6.1
5	c1ccc(Cn2ncc3c(N4CCN(c5ccccc5)CC4)ncnc32)cc1	nt	nt	nt	23.5
6	Cc1cc(C)c(C(=O)C(C)OC(=O)C2=COCCO2)cc1C (stereo unspecified)	-5.1	13.9	i	-12.7
7	COc1ccc2[nH]c3c(=O)n(CCCCCC(=O)NCCC(C)C)c(=S)[nH]c3c2c1	-18.0	-0.6	i	5.5
8	CC(C)NC(=O)COC(=O)c1cncc(Br)c1	12.3	7.2	i	10.7
9	O=C1NC(c2ccccc2)Oc2ccccc21 (stereo unspecified)	-5.4	2.3	i	-8.8
10	CCCc1ccc(S(=O)(=O)N2CCN(C(=O)CN3C(=O)NC(C)(C4CC4)C3=O)CC2)cc1 (stereo unspecified)	nt	nt	nt	-8.6
11	O=C(NCC1CCCO1)C(=O)NCC(c1ccco1)N1CCN(c2ccccc2)CC1 (stereo unspecified)	2.9	-1.6	i	nt
12	Cc1ccc(-c2nnc(N(C)C(=O)c3cccnc3)s2)cn1	-2.5	-8.8	i	nt
13	Cc1ccc(-c2nn[nH]n2)o1	15.3	-15.4	i	-9.5
14	Cc1ccccc1CN1CCN(CC(=O)NCc2ccccc2)C1=O	1.0	-2.6	i	nt
15	O=C(COc1ccc(Cl)cc1)NNC(=O)c1ccc2c(=O)n3c(nc2c1)CCC3	nt	nt	i	nt

No.	CSC inhib	Yeast UUG start	MT1-MMP act inh	MT1-MMP act inh RFP
1	6.7	-1.8	-2.2	3.7
2	13.1	nt	-2.3	-5.6
3	-13.7	4.9	1.7	3.0
4	-23.1	-17.8	15.9	11.2
5	nt	-13.7	-2.2	-16.4
6	-12.8	-1.4	1.5	4.3
7	-6.9	nt	3.1	5.4
8	nt	nt	-2.9	0.3
9	-11.3	-22.2	4.3	1.9
10	nt	25.8	-0.8	2.1
11	-8.2	-6.2	-0.9	1.2
12	-2.8	-3.1	0.7	5.9
13	-4.2	-23.7	-0.6	5.7
14	-3.9	nt	5.4	5.5
15	-4.9	-6.8	-1.3	3.0

# Copied from the list.
# For PABP FP inh, O=C1NC(c2ccccc2)Oc2ccccc21 (stereo unspecified) is listed with -5.4
# For Env fusion inh, Cc1cc(C)c(C(=O)C(C)OC(=O)C2=COCCO2)cc1C (stereo unspecified) is listed with -12.7

# Complete entries, looked up by structure:
# Results for CCCc1ccc(S(=O)(=O)N2CCN(C(=O)CN3C(=O)NC(C)(C4CC4)C3=O)CC2)cc1 (stereo unspecified) = PABP FP inh: nt; eIF4H inh: nt; Rce1 inhib: nt; Env fusion inh: -8.6; CSC inhib: nt; Yeast UUG start: 25.8; MT1-MMP act inh: -0.8; MT1-MMP act inh RFP: 2.1
# Results for O=C(COc1ccc(Cl)cc1)NNC(=O)c1ccc2c(=O)n3c(nc2c1)CCC3 = PABP FP inh: nt; eIF4H inh: nt; Rce1 inhib: i; Env fusion inh: nt; CSC inhib: -4.9; Yeast UUG start: -6.8; MT1-MMP act inh: -1.3; MT1-MMP act inh RFP: 3.0

# New compounds follow:
No.	Molecule	PABP FP inh	eIF4H inh	Rce1 inhib	Env fusion inh
16	O=C(Nc1ccc(N2CCOCC2)c(Cl)c1)c1ccc(Cl)cc1	-4.8	-3.1	i	-20.7
17	C#CCN(C[C@H]1[C@H](OC(=O)NCc2ccccc2F)[C@H](OC(=O)NCc2ccccc2F)C[C@@H](C(=O)OC)[C@H]1C(=O)OC)S(=O)(=O)c1ccc(C)cc1	nt	nt	nt	-44.4
18	CC1=NC(C)(C)Cc2cc(C)c(C)cc21	-14.3	-7.8	i	1.2
19	CC1=C(C(=O)Nc2ccc(C)cc2C)C(c2ccc(C)o2)NC(=O)N1 (stereo unspecified)	4.6	-12.6	i	-144.9
20	Cc1ccc(C2NC(C(=O)O)CS2)cc1 (stereo unspecified)	-1.8	-3.1	i	-18.3
21	CC(C)CN(CCNC(=O)CC1Oc2ccccc2NC1=O)CC(C)C (stereo unspecified)	-4.3	0.8	i	15.6
22	Cc1ccc(C2=C(O)c3ccccc3C(=O)C2=O)cc1	0.7	0.5	i	-7.3
23	COC(=O)c1cc2c(C)[nH]c(C)c2cc(C(=O)OC)c1=O	-8.5	41.6	i	18.7
24	Nc1c(N(Cc2ccco2)C(=O)COc2ccccc2)c(=O)[nH]c(=O)n1Cc1ccccc1	nt	nt	nt	-4.5
25	CCCCN(C=O)c1c(CC)nc2c(OCc3cc(Cl)cc(Cl)c3)cccn12	nt	nt	nt	20.2
26	CCOc1ccccc1N1CCN(S(=O)(=O)c2cc(C)ccc2OC)CC1	-7.2	-3.0	i	-2.2
27	Cn1cc(Br)c(C(=O)N/N=C/c2cccc(OC3CSC3)c2)n1	-10.3	-4.7	i	-25.5
28	CCOc1cc(NC(=S)Nc2ccccc2)c(OCC)cc1NC(=O)c1ccccc1	-4.6	-0.5	i	-43.3
29	Cn1cc(S(=O)(=O)Nc2ccc(Br)cc2F)c(=O)n(C)c1=O	7.5	2.9	i	-23.2
30	O=C(Cn1c(O)c(N=NC(=O)c2ccncc2)c2ccccc21)Nc1ccccc1	3.3	-1.7	i	0.0

No.	CSC inhib	Yeast UUG start	MT1-MMP act inh	MT1-MMP act inh RFP
16	1.7	-6.7	5.9	-4.0
17	nt	-19.0	-0.4	-3.6
18	-11.5	nt	2.1	2.1
19	-3.1	-30.2	-4.3	5.9
20	-8.7	nt	nt	nt
21	-8.7	-7.5	-4.4	6.0
22	-1.9	-4.2	0.7	7.5
23	7.9	nt	-3.8	1.2
24	nt	-8.6	-2.7	-1.6
25	nt	-19.9	2.5	-2.5
26	-6.0	nt	-5.1	-0.3
27	-2.9	nt	0.4	4.6
28	-6.3	-17.4	2.2	0.4
29	-16.2	-9.6	5.3	6.5
30	-10.9	nt	nt	nt

# Going on with the list:
No.	Molecule	PABP FP inh	eIF4H inh	Rce1 inhib	Env fusion inh
31	NC1=NC2(CCCC2)n2c(nc3ccccc32)N1	44.5	7.7	i	7.7
32	O=C(O)C1CCN(Cc2cnn(-c3ccccc3)c2-n2cccc2)CC1	nt	nt	nt	-102.0
33	Cc1ccccc1N1CC(c2nc3ccccc3[nH]2)CC1=O (stereo unspecified)	14.4	14.3	i	-20.5
34	CN(C)c1nc(N)nc(N(c2ccccc2)c2ccccc2)n1	-13.6	-39.6	i	16.8
35	Cc1ccc(NC(=O)NCCN2C(=O)C3C4C=CC(C4)C3C2=O)cc1 (stereo unspecified)	1.0	4.5	i	-44.7
36	COC1=C(OC)C(=O)C(CCCCCCCCCCO)=C(C)C1=O	-0.3	7.1	nt	31.6
37	CC(=O)OC(C(=O)Nc1nccs1)c1ccccc1 (stereo unspecified)	-10.5	-14.4	i	-9.7
38	Cc1cc(SCc2c(F)cccc2Cl)nc(=O)[nH]1	22.4	0.3	i	-7.1
39	NC(=O)c1ccc(SCC(=O)OCC(=O)NCc2ccco2)c([N+](=O)[O-])c1	nt	nt	nt	-28.8
40	CC(C)C(=O)NNC(=O)CSc1nnc(-c2ccccc2)c(-c2ccccc2)n1	-3.0	-9.9	i	2.7
41	CCN(Cc1ccccc1)C(c1cc2cc(C)ccc2[nH]c1=O)c1nnnn1CCOC (stereo unspecified)	24.1	-5.7	i	nt
42	COC(=O)c1c(C(=O)OC)c(-c2ccc(Cl)c(Cl)c2)n2c1CCC2	3.6	2.3	i	nt
43	Cc1cc(C)c2cc(C)c(SCC(=O)NCc3ccco3)nc2c1	-3.3	-7.7	i	6.7
44	C=CCn1nnnc1SCC(=O)Nc1cccc(OC)c1	2.7	-1.5	i	-4.8
45	COc1ccccc1OCCNC(=O)Nc1ccc(Br)cc1	-9.5	-6.2	i	-14.3

No.	CSC inhib	Yeast UUG start	MT1-MMP act inh	MT1-MMP act inh RFP
31	-4.5	-2.6	-1.2	5.0
32	-13.1	-8.9	-1.3	0.4
33	-14.5	-6.2	3.0	-0.3
34	12.5	-12.0	-1.1	2.0
35	9.3	-25.3	5.8	6.7
36	nt	-8.3	5.6	-12.1
37	-4.3	-10.4	-4.6	-0.4
38	-13.2	-1.2	0.1	0.0
39	-12.3	9.0	-0.3	3.9
40	-17.8	-2.1	-2.2	3.7
41	nt	13.3	-1.6	0.8
42	5.8	nt	-1.7	-8.3
43	44.4	nt	0.6	-4.6
44	-5.6	28.2	-2.0	-0.8
45	5.8	nt	7.3	-0.7

# Later entries:
No.	Molecule	PABP FP inh	eIF4H inh	Rce1 inhib	Env fusion inh
46	COc1ccc(S(=O)(=O)N2CCC(C(=O)OCC(=O)c3ccccc3)CC2)cc1[N+](=O)[O-]	7.4	1.1	i	-22.1
47	COc1ccc(NC(=O)CN2CCN(c3ccccn3)CC2)cc1Cl	10.2	3.7	i	-16.8
48	CC1(C(=O)N/N=C/c2ccc3c(c2)OCO3)CC1(Br)Br (stereo unspecified)	-6.6	-11.2	i	103.5*
49	O=C(Cn1nc(C(=O)O)c2ccccc2c1=O)Nc1ccc(F)cc1	17.9	17.2	i	-1.3
50	N=c1ccn(CC(=O)c2ccc(-c3ccccc3)cc2)cc1	-9.3	-4.1	nt	68.7*
51	CCN(CC(=O)Nc1ccc(NC(C)=O)cc1)C(=O)CSC(=S)N1CCCC1	nt	nt	nt	nt
52	Cc1ccc(NC(=O)Cc2nnc(SCC(=O)Nc3nncs3)n2C)c(C)c1	6.2	-1.4	i	-2.6
53	O=C(CN1C(=O)CSc2ccc(S(=O)(=O)N3CCCCC3)cc21)NCc1ccccc1Cl	nt	nt	i	13.6
54	CCOC(=O)CNc1nnc(SCC(=O)OCC)[nH]c1=O	4.8	0.5	i	nt
55	CC(C(=O)NCC1CCCCC1)N1CCN(S(=O)(=O)c2ccccc2F)CC1 (stereo unspecified)	19.7	-3.9	i	1.9
56	COCCCNC(=O)c1ccc(CS(=O)(=O)c2cccc(C(F)(F)F)c2)o1	-5.1	1.6	i	8.5
57	OCCn1ccc(-c2ccccc2OCc2ccc(F)cc2)n1	2.3	-4.7	i	-4.7
58	Cc1sc2ncnc(SCC(=O)c3ccc(Cl)s3)c2c1C	-2.2	6.1	i	nt
59	O=C(NCC1CCCO1)/C(=C\c1cccc([N+](=O)[O-])c1)NC(=O)c1ccccc1 (stereo unspecified)	-6.8	6.0	i	1.9
60	COc1ccc(C2=Nn3c(nnc3-c3ccccc3OC)SC2)cc1OCC1CC1	nt	nt	nt	-94.4

No.	CSC inhib	Yeast UUG start	MT1-MMP act inh	MT1-MMP act inh RFP
46	4.8	-10.5	3.9	1.6
47	-4.1	-16.3	-0.3	-0.7
48	-5.2	-20.7	0.4	-0.4
49	9.1	-2.8	0.8	2.9
50	19.4	nt	-12.6	-32.5
51	-14.9	-2.3	1.9	2.1
52	-0.7	-21.3	2.6	3.7
53	-6.5	-7.3	1.7	-0.7
54	-13.4	-13.4	-1.3	3.4
55	-3.0	2.0	1.6	-3.6
56	-4.1	-18.0	3.5	5.4
57	-9.1	17.1	-2.7	-1.0
58	nt	nt	nt	nt
59	-13.5	nt	-0.2	2.1
60	nt	-13.3	19.6	-2.7

# Screening results from PubChem.

# Not all compounds are listed; the hit share may differ from the screen's.
